Compound activity from PubChem BioAssay.
gsp agonist: gsp mutant agonism | gsp mutant cells, cAMP HTRF, 30 min; control for the full effect not named in the record | hit rate 0.13% among 340,000 | Potency, µM (highest dose often 76.9 µM), inactives show top-dose activation (cAMP increase), usual class: activators | AID 624287; active = well fitted activation curve with a large enough effect; inconclusive = small, poorly fitted or top-dose-only effect, or another doubt; inactive = no such curve, though single readings can be large or run the other way; cell line not stated here;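 also: phosphodiesterase inhibitor Ro 20-1724 added with compounds to block cAMP breakdown; potency is read from the fitted curve at half-maximal effect; nearly all actives have a fitted effect of over 60% in size; about a fifth of the inactives were tested at one dose only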
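Cells in DMEM/10% FBS with G418 were pretreated with compounds in DMSO plus […] (300 uM stock) for 30 min at 37C. cAMP was measured by HTRF (cAMP-d2 plus anti-cAMP antibody-K) after 30 min at room temperature.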
TRPV1 potentiator: potentiators of human vanilloid receptor 1 (TRPV1); hit rate 0.02% among 320,000; potentiation, % at 8.33 µM; TRPV1-expressing cells, Fluo-8 calcium influx, capsaicin EC20 potentiation; host cell line not named in the record; control for the full effect not named in the record; active means potentiation above 80%; inconclusive means 30% to 80%; inactive means below 30%; also: 0% is about no effect
Target sequence (Q8NER1 whole entry, looked up): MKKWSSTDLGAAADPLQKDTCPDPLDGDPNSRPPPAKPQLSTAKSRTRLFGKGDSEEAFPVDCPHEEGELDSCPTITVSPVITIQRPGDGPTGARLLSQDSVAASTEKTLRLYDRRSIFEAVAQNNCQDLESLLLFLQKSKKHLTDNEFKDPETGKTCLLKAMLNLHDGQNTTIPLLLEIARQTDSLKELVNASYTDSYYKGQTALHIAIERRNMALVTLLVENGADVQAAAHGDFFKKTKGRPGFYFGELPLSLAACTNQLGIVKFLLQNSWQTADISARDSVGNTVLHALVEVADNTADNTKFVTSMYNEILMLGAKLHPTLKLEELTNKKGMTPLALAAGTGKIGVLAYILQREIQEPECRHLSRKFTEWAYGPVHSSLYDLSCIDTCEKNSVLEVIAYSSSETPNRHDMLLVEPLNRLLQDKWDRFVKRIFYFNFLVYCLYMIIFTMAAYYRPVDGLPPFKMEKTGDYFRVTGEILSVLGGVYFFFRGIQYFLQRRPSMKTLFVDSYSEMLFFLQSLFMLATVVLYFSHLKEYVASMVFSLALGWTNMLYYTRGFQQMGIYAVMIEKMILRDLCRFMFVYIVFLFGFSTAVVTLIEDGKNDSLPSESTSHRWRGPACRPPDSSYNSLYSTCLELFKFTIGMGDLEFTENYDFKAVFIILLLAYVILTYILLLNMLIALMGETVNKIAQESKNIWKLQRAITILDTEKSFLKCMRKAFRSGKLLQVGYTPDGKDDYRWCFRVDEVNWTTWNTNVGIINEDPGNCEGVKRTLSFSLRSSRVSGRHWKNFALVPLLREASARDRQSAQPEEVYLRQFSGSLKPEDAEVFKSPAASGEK
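TRPV1-expressing cells were cultured overnight at 35.5C and loaded with Fluo-8 calcium dye for 40 to 90 min at room temperature. After a 10 s baseline, compound was added and calcium influx was read kinetically for 3 min (ex 480/em 520 nm).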
Sfp inh: Sfp phosphopantetheinyl transferase inhibition | Q9F4F7 | Biochemical Sfp PPTase activity, qHTS | Potency, µM, inactives show max response, negative = inhibition, usual class: inhibitors | hit rate 3.5% among 310,000 | AID 1490; active = well fitted inhibition curve with a large enough effect; inconclusive = small, poorly fitted or top-dose-only effect, or another doubt; inactive = no such curve, though single readings can be large or run the other way;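 also: the enzyme is Sfp with the accession as filed and its product quenches rhodamine fluorescence; potency is read from the fitted curve at half-maximal effect; 0% = enzyme reaction without inhibitor and -100% = no enzyme wells; top concentration of the series not given in the record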
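Step 1, compound plus 15 nM Sfp-PPTase, 15 min, room temperature. Step 2, add rhodamine-CoA (5 uM) and BHQ-2-YbbR (12.5 uM). Step 3, read 525/598 nm fluorescence at 0 and 30 min.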
Menin-MLL FL inh: inhibitors of human menin-MLL interaction, wild-type MLL peptide | FP activity change, % at 61.4 µM | Fluorescence polarization, fluorescein-MLL peptide displacement from menin | 290,000 tested, under 10 active | AID 1766; inconclusive = falling polarisation curve, or a change in total fluorescence; inactive = total fluorescence flat and polarisation flat or rising; no compound was filed as active; the % refers to the polarisation; negative = inhibition;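 also: % of control where 0% means no effect; inhibitors lower the polarisation; unlabelled MLL peptide was the positive control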
gsp antag: antagonizes gsp, the McCune-Albright syndrome mutation; gsp-mutant cells, cAMP HTRF, 30 min; control for the full effect not named in the record; Potency, µM (titrated, usually from 76.9 µM), for inactives: at the top dose activity change, negative = inhibition, usual class: inhibitors; hit rate 0.4% among 340,000; AID 624288; active = falling curve of any shape with a large fitted effect; inconclusive = falling curve, mostly with a smaller effect; inactive = flat or rising curve; cell line not stated here;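 also: intracellular cAMP measured with PDE inhibitor Ro 20-1724 present during compound exposure; potency is read from the fitted curve at half-maximal effect; % is scaled to controls: 0 for no effect and ±100 for the full control effect; nearly all actives have a fitted effect of over 65% in size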
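G418-selected cells were plated in DMEM/10% FBS for 16-24 h at 37C, then treated with compounds plus the PDE inhibitor […] (300 uM solution added) for 30 min at 37C. Intracellular cAMP was measured by HTRF after 30 min lysis at room temperature.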
TRPML1 blocker: blocks the human TRPML1 channel | Q9GZU1 | TRPML1-inducible cells, Ca2+ dye fluorescence, FDSS; hits give low values; inhibition of EC80 agonist-evoked calcium signal | activity change, negative = inhibition, % (test concentration not listed) | hit rate 0.02% among 390,000 | AID 624415; in the data active means activity change below about -50%; inconclusive means about -30% to -50%; inactive means above about -30%;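 also: stimulus is agonist 54-4 at its EC80 concentration; % is scaled to controls: 0 for no effect and ±100 for the full control effect; compound concentration not given in the record; the text of the record puts the active cut at -80%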
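Calcium fluorescence in TRPML1-DL cells induced overnight with Tet: a 110 s read after compound pin addition, then a 110 s antagonist read after challenge with 54-4 at 4 uM final (EC80).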
ClpP mod: qHTS Assay for Activators of ClpP; ATP-dependent Clp protease proteolytic subunit (Bacillus subtilis (strain 168)), P80244; purified B. subtilis ClpP, FRET peptide cleavage, 20 min; Potency, µM (highest dose often 57.5 µM), for the others: top-dose activity change, negative = active; hit rate 1.9% among 340,000; AID 651965, 2013; active = well fitted falling curve with a large enough effect; inconclusive = small, poorly fitted or top-dose-only effect; inactive = no such curve, though single readings can be large or run the other way; also: potency is read from the fitted curve at half-maximal effect; the source files actives as falling curves though it sought activators and does not explain the sign; nearly all actives have a fitted effect of over 65% in size; many hits overshoot -100%
Target sequence (P80244 whole entry, looked up): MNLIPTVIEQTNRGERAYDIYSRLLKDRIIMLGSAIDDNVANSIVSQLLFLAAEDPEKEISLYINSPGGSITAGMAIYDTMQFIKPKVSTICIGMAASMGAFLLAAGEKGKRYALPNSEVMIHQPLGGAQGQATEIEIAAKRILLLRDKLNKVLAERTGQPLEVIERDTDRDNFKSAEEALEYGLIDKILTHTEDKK
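FRET quenching reversal measured ClpP activation: 10 microg/mL B. subtilis ClpP at pH 8 with the FRET-FV decapeptide, read at 430 nm after 320 nm excitation. The 20-min minus 0-min signal was scaled between DMSO/no-enzyme wells and ADEP (5.8 microM final).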
* marks the source's active call; other numbers are inactive results; ? = inconclusive; . = not tested or not shown; [ ] = another dose, or the depositor's remark.

SMILES | gsp agonist | TRPV1 potentiator | Sfp inh | Menin-MLL FL inh | gsp antag | TRPML1 blocker | ClpP mod
Cc1ccccc1COC(=O)CCC1=NS(=O)(=O)c2ccccc2N1 | 34% | 11 | 11% | . | 5% | 31 | -1.8%
COCc1ccc(C(=O)NC2CCCc3c2cnn3-c2cc(C)cc(C)c2)s1 (centres undefined) | 29% | -9 | 4% | -3.3 | ? | 19 | 0.4%
O=C(Cc1ncc(C(F)(F)F)cc1Cl)NC1CC1 | -1%[15.4 µM] | -21 | -1% | 2.2 | 1% | -4 | -7.2%
CN(C(=O)CSc1nc2ccc([N+](=O)[O-])cc2s1)C1CCS(=O)(=O)C1 (centres undefined) | ? | -1 | -3% | -1.2 | -30% | 10 | -0.1%
CC(/C=N/n1c(COc2ccccc2)n[nH]c1=S)=C\c1ccco1 | 8%[15.4 µM] | 7 | -12% | 10 | -12% | 4 | .
Cc1nc(SCC(=O)N2CCCCC2)c2c(C)c(C)sc2n1 | 11% | -7 | -9% | 7.3 | -10% | 0 | .
CCN(CC(=O)Nc1ccc2c(c1)OCCO2)C(=O)COc1ccc(C)cc1 | -9% | -7 | 0% | . | 4% | -12 | -4.7%
CCN1/C(=C/c2ccc3cc(C)ccc3[n+]2CC)Sc2ccccc21 | ? | ? | 11µM* | ? | -19% | -6 | 0.0%
CCN(Cc1ccccc1)S(=O)(=O)c1c[nH]c(C(=O)OC)c1 | -9% | -29 | 26% | -4.0 | -2% | 0 | -0.9%
COc1cccc(/C=C/C(=O)Nc2ccccc2N2CCOCC2)c1 | -7%[15.4 µM] | 4 | 10% | 0.8 | -1% | -1 | -2.4%
CN(C)CCCNC(=O)/C=C/c1ccc(OCc2c(F)cccc2Cl)cc1 | 24% | 7 | -7% | 1.3 | 7% | -16 | .
O=C(COC(=O)c1cccc(Br)c1)NCC1CCCO1 (centres undefined) | -2% | . | . | . | 10% | -2 | .
O=c1cc(-c2ccc(O)cc2)oc2cc(O)c(C3OC(CO)C(O)C(O)C3O)c(O)c12 (centres undefined) | . | ? | 8% | -4.3 | 3% | . | -23%
COc1cccc(C(=O)NCCS(=O)(=O)N2CCOCC2)c1 | -1% | -6 | . | . | 10% | -6 | -1.1%
Cc1ccccc1OCc1nc(C#N)c(N2CCCC2)o1 | -7%[15.4 µM] | -12 | -17% | 9.1 | -5% | -19 | .
COc1ccc(CC(=O)Nc2ccc(OC)nc2)cc1 | -43%[inhibitor] | -3 | 12% | -4.5 | 18% | -1 | 0.4%
CCN1C(=O)[C@H]2[C@H]3CN=C(SCc4ccc(C(=O)OC)cc4)N3[C@@](CC)(C(=O)OC)[C@H]2C1=O | . | . | . | . | 2% | 22 | -0.9%
On1c(-c2ccco2)nc2c1CCc1nonc1-2 | 5% | 6 | -6% | 3.7 | 5% | -7 | -2.8%
O=C(NCc1ccco1)c1ccc(COCC(F)(F)C(F)F)cc1 | -4% | -4 | 12% | 0.9 | -10% | 0 | 0.2%
O=C(O)c1ccc(C(=O)Nc2cccc3ccccc23)c(C(=O)O)c1 | -21% | -4 | -7% | 1.0 | -1% | 4 | 4.3%
COc1ccc(-n2nc(C(=O)Nc3ccc4c(c3)OCO4)c3ccccc3c2=O)cc1 | -44% | 19 | -5% | -2.2 | -8% | 21 | -1.2%
c1ccc(-c2nnc(SCCC3OCCCO3)o2)cc1 | -16% | . | 23% | -0.3 | 9% | -12 | 2.3%
CC(=O)Nc1ccc(N/C(=N\S(=O)(=O)c2ccccc2)c2ccccc2)cc1 | -36% | 0 | 11% | . | -21% | -20 | -4.5%
O=C(Nn1c(C2CCC2)nc2ccccc2c1=O)c1cccs1 | ? | 0 | 13% | -1.1 | -1% | 12 | .
CCCNC(=O)Nc1cc(C)on1 | -18% | -15 | 18% | 2.9 | 14% | -2 | -2.0%

Entries of single compounds, looked up by structure:
On1c(-c2ccco2)nc2c1CCc1nonc1-2 reads gsp agonist = 5%; TRPV1 potentiator = 6; Sfp inh = -6%; Menin-MLL FL inh = 3.7; gsp antag = 5%; TRPML1 blocker = -7; ClpP mod = -2.8%
CN(C)CCCNC(=O)/C=C/c1ccc(OCc2c(F)cccc2Cl)cc1 reads gsp agonist = 24%; TRPV1 potentiator = 7; Sfp inh = -7%; Menin-MLL FL inh = 1.3; gsp antag = 7%; TRPML1 blocker = -16; ClpP mod = .

(listing goes on)
SMILES | gsp agonist | TRPV1 potentiator | Sfp inh | Menin-MLL FL inh | gsp antag | TRPML1 blocker | ClpP mod
CCN(CC)S(=O)(=O)c1ccc(Cl)c(NC(=O)CSc2nnc(-c3cccs3)o2)c1 | ? | 5 | 9% | 9.8 | 0% | 5 | -1.8%
CNC(=S)Nc1ccc([N+](=O)[O-])cc1 | -9% | ? | -11% | -0.9 | 1% | 19 | -1.9%
O=C(C[n+]1cc(Br)cc(Br)c1)c1ccccc1 | 18% | -12 | -8% | 0.8 | 1% | -8 | -0.1%
C[C@H](CO)N1C[C@H](C)[C@@H](CN(C)S(=O)(=O)c2ccc(F)cc2)Oc2c(NC(=O)c3ccncc3)cccc2C1=O | . | . | . | . | 3% | -10 | -1.3%
COc1cc(Cl)c(C)cc1NC(=O)COC(=O)c1cnc(C)cn1 | 0% | -1 | 23% | 1.4 | -8% | -6 | 0.8%
CC(CNC(=S)Nc1cc(F)cc(F)c1)CSc1ccc(Cl)cc1 (centres undefined) | 19%[15.4 µM] | -3 | ? | -3.8 | -24% | 20 | .
Cc1cc(-c2ccccc2)nc2cc(C(N)=O)nn12 | 9% | -4 | -9% | 0.5 | 18% | 6 | -23%
CC1=CC(C)(C)N(S(=O)(=O)c2ccc(F)cc2)c2ccccc21 | -2% | 16 | 10% | -2.5 | -8% | 28 | -0.9%
COc1cccc(OC)c1C(=O)Nc1ccc(N2CCN(S(C)(=O)=O)CC2)cc1 | -5% | -5 | -13% | 0.9 | 2% | -4 | -1.6%
Cc1nnc2sc(-c3ccco3)nn12 | -4% | -33 | 17% | 0.8 | 8% | 4 | -2.1%
O=C(Oc1cccc2cccnc12)c1ccc(N2C(=O)C3C4CCC(C4)C3C2=O)cc1 (centres undefined) | 16%[15.4 µM] | -3 | ? | 4.1 | -9% | -2 | -2.2%
CCc1nnc(NC(=O)CSc2ccc(-c3ccccc3OC)nn2)s1 | 8%[15.4 µM] | 18 | 12% | 2.7 | 1% | -5 | .
CCOC(=O)C1=C(COC(=O)c2ccco2)NC(=O)NC1CC (centres undefined) | -61%[inhibitor] | -2 | . | . | 0% | -2 | 1.6%
Cc1ccc(N(Cc2ccccc2)C(=O)c2ccc(C)c(S(=O)(=O)N3CCOCC3)c2)cc1 | 7% | 0 | . | . | -10% | 34 | 0.0%
CS(=O)(=O)N(CC(=O)N1CCCC1)Cc1ccc(Cl)c(Cl)c1 | -7% | 4 | 9% | 1.2 | 1% | . | -0.2%
O=C(N/N=C/c1c(F)cccc1Cl)C1CC1 | 9% | 7 | 6% | 4.5 | 5% | 1 | -0.3%
CCN(CC)C(c1ccc(F)cc1)c1nnnn1CC1CCCO1 (centres undefined) | 0% | -6 | -6% | -0.5 | 0% | -2 | -1.3%
COC(=O)c1ccc(N2CCOCC2)c(F)c1 | -5%[15.4 µM] | 2 | 14% | -4.8 | 3% | -15 | -2.0%
O=[N+]([O-])c1ccccc1CNCCCCO | -1% | ? | . | . | 7% | 22 | -2.9%
CC(CC(=O)Nc1ccc2c(c1)OCCO2)c1ccccc1 (centres undefined) | 6% | -22 | 16% | 9.0 | -11% | -10 | -3.4%
O=C(NC1CCCCC1)c1cc(N2C(=O)CCC2=O)ccc1Cl | 3% | 4 | 15% | -4.2 | 6% | 20 | .
Cc1ccc(S(=O)(=O)N2CCCCC2)cc1NC(=O)COC(=O)c1cccc(O)c1 | -106%[inhibitor] | . | . | . | . | -5 | -1.3%
CN(C)CC(=O)N1c2ccccc2CCc2ccc(NC(=O)c3ccc(N)cc3)cc21 | -5% | 13 | -37% | 1.3 | 8% | 28 | -2.9%
COC(=O)C[C@H]1C[C@@H]2c3cc(NS(=O)(=O)c4cccc(OC)c4)ccc3O[C@@H]2[C@@H](CO)O1 | -3% | . | . | . | . | 3 | 0.3%
CC1(C)Cc2nc(-c3ccccc3)n3cnnc3c2CO1 | 0% | -10 | 2% | 0.0 | 2% | -3 | -1.7%
Further results follow:
SMILES | gsp agonist | TRPV1 potentiator | Sfp inh | Menin-MLL FL inh | gsp antag | TRPML1 blocker | ClpP mod
CCOc1ccccc1CNC(=O)C1CCCN(c2nn3c(=O)cc(C)nc3s2)C1 (centres undefined) | 32% | 5 | 12% | 1.3 | 10% | -2 | -0.2%
COc1cccc(/C=N/NC(=O)c2nnn(-c3nonc3N)c2CN(C)c2ccccc2)c1 | -16% | 2 | 14% | -8.1 | ? | -2 | -3.7%
Cc1nn(C)c(C)c1CN(C)C(=O)c1cnn2c1NC(c1ccccc1)CC2C(F)(F)F (centres undefined) | -46%[inhibitor] | . | 0% | 4.9 | -6% | 16 | -1.0%
CCCCOc1ccccc1P(=O)(O)CP(=O)(c1ccccc1)c1ccccc1 | 19% | -2 | 15% | -1.6 | 1% | 21 | -1.7%
Cc1ccc(NC(=O)Cc2nc(CSc3nnc(-c4ccc5c(c4)OCO5)o3)cs2)cc1 | 2% | 0 | -15% | 6.2 | ? | 29 | 9.7%
C/C(=N\Nc1nc2ccccc2[nH]1)c1cccs1 | -29% | 1 | -4% | 5.2 | -24% | 1 | .
CCN(CC)CCCNC(=O)COc1ccc2oc3c(c2c1)CCCC3 | 4% | 1 | 4% | 2.3 | 8% | -17 | 1.0%

Marked active in Sfp inh, of those listed so far:
SMILES | gsp agonist | Sfp inh | Menin-MLL FL inh | gsp antag | TRPML1 blocker
CCN1/C(=C/c2ccc3cc(C)ccc3[n+]2CC)Sc2ccccc21 | ? | 11µM* | ? | -19% | -6
